Screening results from PubChem BioAssay.
H5N1 antiviral: antiviral screen in MDCK cells, H5N1 avian flu; cytopathic effect, luminescence, 72 h; stronger effect = higher value; no value below 0 was filed and about half of the inactive calls have no number; reference of the scale not given here; inhibition, % at 50 µM; actives 0.07% (n = 96,000); in the data active means inhibition above about 25%
* = called active by the depositor; i = inactive.

SMILES	H5N1 antiviral
CN(C)c1ccnc2sc(C(N)=O)c(N)c12	3.7
C/C(N)=C(/C#N)C(=O)CSc1nnc(NC(C)C)s1	2.1
Cc1c(C(=O)O)sc2nc(C)n(C)c(=O)c12	0.0
COC(=O)c1ccc(C2c3c(n[nH]c3C)C(=O)N2c2ccc(C)cc2)cc1 (stereo not drawn)	0.6
CN(C)C(CNC(=O)Nc1cccc(Cl)c1)c1cccnc1 (stereo not drawn)	i
Cc1nc2cc(Cl)ccc2n1CCO	i
Cc1ccc(-c2noc(CCC(=O)NCC3CCN(Cc4cccc(C)c4)CC3)n2)cc1	i
CCn1c(SCC(=O)N2CCCC(C)C2)nnc1-c1ccc(S(=O)(=O)N2CCN(C)CC2)cc1 (stereo not drawn)	0.2
CCOC(=O)c1c(C)n(C)c2ccc(OCC(O)CN3CCCCCC3)cc12 (stereo not drawn)	i
C1CCN(c2nc(N3CCCC3)nc(N3CCNCC3)n2)C1	i
O=C(NNC(=O)c1ccccc1Br)c1ccc(SCC2CCCO2)c([N+](=O)[O-])c1 (stereo not drawn)	i
Cc1cc(O)c(C(=O)c2ccccc2C(=O)O)cc1C	i
COc1cc(OC)c(C2=NOC(C(=O)Nc3c(C)nn(CC(=O)N4CCCC4)c3C)C2)cc1Cl (stereo not drawn)	1.1
CCSc1nnc2nc(C)cc(C)n12	i
COc1ccc(CCNC(=O)c2c(N)n(CCN3CCOCC3)c3nc4ccccc4nc23)cc1	i
CC1CN(C(=O)C(C)N2C(=O)c3ccccc3C2=O)CC(C)O1 (stereo not drawn)	i
CCO/C(C)=N/n1c2nc3ccccc3nc2c2c(=O)n(C3CCCC3)c(C)nc21	i
CCOc1cc2c(C#N)c(N3CCOCC3)nc(N)c2c(N)n1	1.3
c1cnn(-c2cc(N3CCOCC3)ncn2)c1	i
COc1cccc(S(=O)(=O)NCc2ccc(C(=O)Nc3ccc(Cl)c(Cl)c3)cc2)c1	i
CN(C)/C=C/C(=O)/C=C/c1cn(-c2ncc(C(F)(F)F)cc2Cl)c2ccccc12	i
CC(c1ccccc1F)n1cc(C(=O)Nc2ccc3nc[nH]c3c2)nn1 (stereo not drawn)	i
O=c1cc(-c2ccccc2)nc2nc(COc3ccccc3)[nH]n12	i
CCCC12CN3CC(C)(CN(C1)C3c1ccc3c(c1)OCO3)C2=O (stereo not drawn)	0.2
COC(=O)C1=C(C)NC(C)=C(C(=O)OC)C1C(=O)OC1CCCCC1=O (stereo not drawn)	i
C/C(CC1CC(COCCC(C)C)OC1=O)=N\NC(N)=S (stereo not drawn)	0.2
Cc1cccc(CC2CC(=O)N(C3CCCCC3)C2=O)c1 (stereo not drawn)	0.3
COc1ccc(S(=O)(=O)Nc2ccc(S(=O)(=O)N3CCCC3)cc2)cc1	0.8
CN(Cc1nc(-c2ccncc2)no1)S(=O)(=O)c1ccc(Br)cc1	0.6
CCOC(=O)N1CCC(N2C(=O)c3cc(C(=O)NC4CCCCC4)ccc3C2O)CC1 (stereo not drawn)	i

Molecules shown so far with an aryl methoxy group, in the order listed:
SMILES	H5N1 antiviral
COc1cc(OC)c(C2=NOC(C(=O)Nc3c(C)nn(CC(=O)N4CCCC4)c3C)C2)cc1Cl (stereo not drawn)	1.1
COc1ccc(CCNC(=O)c2c(N)n(CCN3CCOCC3)c3nc4ccccc4nc23)cc1	i
COc1cccc(S(=O)(=O)NCc2ccc(C(=O)Nc3ccc(Cl)c(Cl)c3)cc2)c1	i
COc1ccc(S(=O)(=O)Nc2ccc(S(=O)(=O)N3CCCC3)cc2)cc1	0.8

Next records.
SMILES	H5N1 antiviral
Cc1cc(C)c(S(=O)(=O)c2ccccc2)c(OC(=O)c2c(Cl)cc(Cl)cc2Cl)n1	i
CCN(CC)C(=O)C1CCCN(Cc2ccc(OC)c(C)c2C)C1 (stereo not drawn)	i
Cc1ccc(-n2ncc3c(=O)n(CC(=O)NCC4CCCO4)cnc32)cc1 (stereo not drawn)	0.4
Cc1ccc(-n2c(N)c(C(N)=O)sc2=S)cc1	i
COc1ccc(CNCCC(c2ccccc2)c2ccc3c(c2)OCO3)cc1 (stereo not drawn)	i
COc1cccc(CN2CCCN(S(=O)(=O)c3ccc(Br)cc3)CC2)c1	i
CCOC(=O)CC(=O)CSc1nc(C)cc(C)c1C#N	1.4
CCCCOCCCNC(=O)N[C@@H](CC(C)C)C(=O)O	1.0
CCn1c(CSc2nc3ccccc3s2)nnc1SCC(=O)NCC(=O)OC	i
O=C(CNCC1CCCO1)N1CCN(S(=O)(=O)c2ccc3ccccc3c2)CC1 (stereo not drawn)	i
c1ccc(CC2CCN(c3nc4ccccc4n4cnnc34)CC2)cc1	3.0
CC1CCCCN1S(=O)(=O)c1coc(C(N)=O)c1 (stereo not drawn)	0.5
COc1cc(NC(=O)CCCC(=O)OCC(F)(F)C(F)F)nc(OC)n1	0.7
COC(=O)C1=C(C)NC(C)=C(C(=O)OC)C1c1cc2ccc(C)cc2[nH]c1=O	0.2
C=CCn1c(O)c(C(CC)=Nc2cc(OC)ccc2OC)c(=O)[nH]c1=O	0.1
O=C1CCN(C(=O)Nc2ccccc2)N1	i
CCOC(=O)c1ccc(NC(=O)CSc2nnc(C)n2-c2ccccc2)cc1	i
N#Cc1cc(-c2ccccc2)oc1/N=C/c1ccccc1O	i
CCOc1ccc(NC(=O)CCN2CCN(c3ccccc3)CC2)cc1	i
S=c1[nH]nc(-c2ccccc2Cl)n1CC1CCCO1 (stereo not drawn)	1.3
Cc1noc(/C=C/N(C)C)c1S(=O)(=O)N1CCCC(C(=O)NCc2ccco2)C1 (stereo not drawn)	0.2
CC1CCCC(C)N1C(=O)Cn1c(SCC(=O)Nc2ccc3c(c2)OCO3)nc2ccccc21 (stereo not drawn)	i
CCOC(=O)CSc1ncnc2c1cnn2-c1ccccc1	0.0
CCOC(=O)N1CCN(C(=O)CN(C2CCCCC2)S(=O)(=O)c2ccc(Cl)cc2)CC1	i
O=C(c1ccc2c(c1)OCO2)N(CC1CCCO1)C1(C(=O)NC2CCCCC2)CCCCC1 (stereo not drawn)	i
CN(C)C(=O)N1CCN(C(=O)N(C)C)CC1	i
O=C(CN1CCOCC1)NCCNC(=O)CN1CCOCC1	0.1
CCOc1ccc(C(=O)Nc2cccc(-c3cc4ccccc4oc3=O)c2)cc1[N+](=O)[O-]	i
O=Nc1c2nc3ccccc3n(O)c-2c2ccccc12	4.0
NCCc1nnc(SCC(N)=O)o1	i
Cc1ccc(S(=O)(=O)Nc2cc(C(=O)O)ccc2N2CCCCC2)cc1	3.8
Cc1ccc(S(=O)(=O)Cc2ccc(C(=O)N3CCN(c4ccccn4)CC3)o2)cc1	0.9
Cc1ccsc1C(=O)N(c1nc2ccccc2s1)c1c(C)cccc1C	i
CC1Cc2ccccc2N1C(=O)c1ccc2snnc2c1 (stereo not drawn)	i
Cc1cccc(C(C)C)c1NC(=O)CSc1nncn1C	i
Cc1ccc(OCCn2c(C3CC(=O)N(Cc4ccccc4)C3)nc3ccccc32)cc1 (stereo not drawn)	0.7
CCc1cccc(CC)c1-n1c(SCc2cc(=O)n3ccsc3n2)nnc1-c1cccnc1	7.1
CCOc1cc(NC(=O)c2ccco2)c(OCC)cc1NC(=O)CCc1ccccc1OC	i
O=C(NCCc1ccccc1)C1CCN(S(=O)(=O)c2cccs2)CC1	0.2
COc1ccc(CCNC(=O)Cn2c(=O)n(Cc3ccco3)c(=O)c3ccc(Cl)cc32)cc1OC	i
CC(=C1C(=O)c2ccccc2C1=O)N1CCN(C/C=C/c2ccccc2)CC1	0.2
COc1cc(SC#N)ccc1N=Cc1c(C)[nH]n(-c2cccc3ccccc23)c1=O	0.3
CCC1S/C(=C(\C#N)C(N)=O)N(c2ccc(F)cc2)C1=O (stereo not drawn)	0.4
Fc1ccc(N2N=C(c3cccs3)CC2c2ccco2)c(F)c1 (stereo not drawn)	i
CCOc1ccc(NC(=O)CCN2CCN(S(=O)(=O)c3ccc(OC)cc3)CC2)cc1	i

The list goes on, overlapping the part above by two compounds.
SMILES	H5N1 antiviral
Fc1ccc(N2N=C(c3cccs3)CC2c2ccco2)c(F)c1 (stereo not drawn)	i
CCOc1ccc(NC(=O)CCN2CCN(S(=O)(=O)c3ccc(OC)cc3)CC2)cc1	i
O=C1CN=C(Nc2ccccc2Cl)N1c1ccccc1	i
CCC(=O)N(Cc1ccc(C)cc1)Cc1cc2cc3c(cc2[nH]c1=O)OCO3	0.6
CCCCN1CCCCC1C(=O)Nc1c(C)cc(C)cc1C (stereo not drawn)	0.4
Cc1oc(-c2ccc(Cl)cc2)nc1CN1CCCC(C(=O)NCc2ccco2)C1 (stereo not drawn)	i
COC(=O)Cc1ccc2c3ccccc3n(C)c2c1	0.3
O=C(CSc1ccc(Cl)cc1)Nc1ccc(N2CCN(C(=O)c3ccc(Cl)cc3)CC2)cc1	1.4
S=c1[nH]nc(COc2ccccc2)n1C1CCCCC1	2.0
CCOC(=O)c1ccc(N2Cc3ccccc3C2=N)cc1	0.5
O=C(NCCc1ccccc1)c1c(O)c2cccc3c2n(c1=O)CC3	i
Cc1ccc(-c2nnc(SCC(=O)Nc3ccc(N4CCOCC4)cc3)o2)cc1	0.2
COC(=O)c1ccc(Sc2nnnn2-c2ccccc2)c([N+](=O)[O-])c1	8.0
O=C(OC1CCOC1=O)c1ccc(-c2nc3ccccc3s2)s1 (stereo not drawn)	i
CCC(C)NC(=O)C1c2ccccc2C(=O)N1Cc1ccc(OC)cc1OC (stereo not drawn)	0.2
COc1nc(Nc2ccc(C(C)=O)cc2)nc(OC)n1	1.5
CCc1cccc(CC)c1NC(=O)CN1CC(C)SC1=NC1CCCCC1 (stereo not drawn)	i
Brc1ccc(-c2cnc3n2CCCC3)cc1	i
O=C1NC(=O)C(=Cc2cn(CCOc3ccc4c(c3)OCO4)c3ccccc23)C(=O)N1	i
COc1cc(CNCCN2CCOCC2)ccc1OCc1cccc(Cl)c1	0.7
CCC(=O)N1CCc2cc(S(=O)(=O)N3CCN(c4ccccn4)CC3)ccc21	1.4
COCCCNC(=O)Cn1cc2c(n1)CCCCC2	i
CCOC(=O)C1CCCN(S(=O)(=O)c2cc(Br)cc3c2N(C(=O)C2CC2)CC3)C1 (stereo not drawn)	i
COc1ccc(N2CCN(C(=O)CCN3C(=O)c4ccccc4S3(=O)=O)CC2)cc1	i
Cc1cccc2cc(CN(CC3CCCO3)C(=O)c3ccncc3)c(=O)[nH]c12 (stereo not drawn)	0.5
COc1cc2c(c(O)c1OC)C(=O)C(OC)CCC2 (stereo not drawn)	1.0
Cc1c(C(=O)NCC2CCCO2)sc2nc(-c3ccccc3)cn12 (stereo not drawn)	i
CCCCc1c(O)nc2n(c1=O)CCS2	i
COCCCNC(=O)c1cc2c(=O)n3cccc(C)c3nc2n(C(C)C)c1=N	1.1
CCOC(=O)C1CCCN(c2c(NCCN(C)Cc3ccccc3)c(=O)c2=O)C1 (stereo not drawn)	0.9
CCCCCOC(=O)C1[C@H]2C(=O)N(CCCOC)C[C@]23C=C[C@H]1O3 (stereo partly drawn)	i
CCOC(=O)N1CCc2c(sc3c2C(=O)NC(c2ccccc2)N3)C1 (stereo not drawn)	i
N#C/C(=C\c1ccc(Cl)cc1)c1n[nH]c(Cn2cncn2)n1	1.6
CCOc1ccc(C(C)=O)cc1CSc1nnc(-c2ccoc2C)n1N	0.6
CCC1(C)Cc2c(sc(NC(=O)CCC(=O)O)c2C#N)CO1 (stereo not drawn)	0.1
O=C1/C(=C\Nc2ccc(OC(F)(F)F)cc2)CCN1c1ncccn1	1.3
CCSc1nnc2n(-c3ccc(OC)cc3)c(=O)c3c4c(sc3n12)CCCC4	i
CCOC(=O)C1=NN(C(=O)Nc2cccc(C(F)(F)F)c2)C2C(=O)N(c3cccc(C(F)(F)F)c3)C(=O)C12 (stereo not drawn)	i
O=C(O)c1cccc(CN2C(=O)CSC2=O)c1	0.5
COc1ccc(-c2cn(-c3ccc(C)cc3)c(=O)n2CC(=O)Nc2ccc(OC)c(OC)c2)cc1	i
Cc1cc(C)nc(Nc2ccc(N3CCCC3)cc2)n1	i
Cc1ccccc1NS(=O)(=O)c1cc(C(=O)N2CCc3ccccc3C2)ccc1C	i
Cc1nn(C(C)(C)C)c(OC(=O)c2ccc(Br)o2)c1Sc1ccccc1	i
COc1cccc(C(=O)COc2cccc(NC(=O)c3cccc([N+](=O)[O-])c3)c2)c1	i
CCCc1cc(=O)[nH]c(-n2[nH]c3c(c2=O)CCCC3)n1	4.8
CC(C)Cc1nc(SCC(=O)NCc2ccccc2)n[nH]1	2.1
COc1ccc(C2N(c3cc(Cl)ccc3OC)C(=O)C3CCCN32)c(OC)c1 (stereo not drawn)	i

Rewritten with bars between the fields: five of the compounds above
canonical_smiles | H5N1 antiviral
CN(Cc1nc(-c2ccncc2)no1)S(=O)(=O)c1ccc(Br)cc1 | 0.6
O=C(OC1CCOC1=O)c1ccc(-c2nc3ccccc3s2)s1 (stereo not drawn) | i
O=C(CN1CCOCC1)NCCNC(=O)CN1CCOCC1 | 0.1
COCCCNC(=O)Cn1cc2c(n1)CCCCC2 | i
CCCC12CN3CC(C)(CN(C1)C3c1ccc3c(c1)OCO3)C2=O (stereo not drawn) | 0.2

4 neighbouring entries from above, for reference:
SMILES	H5N1 antiviral
N#C/C(=C\c1ccc(Cl)cc1)c1n[nH]c(Cn2cncn2)n1	1.6
CCOc1ccc(C(C)=O)cc1CSc1nnc(-c2ccoc2C)n1N	0.6
CCC1(C)Cc2c(sc(NC(=O)CCC(=O)O)c2C#N)CO1 (stereo not drawn)	0.1
O=C1/C(=C\Nc2ccc(OC(F)(F)F)cc2)CCN1c1ncccn1	1.3

(continued)
SMILES	H5N1 antiviral
COc1ccc(C(=O)CSc2ncn[nH]2)cc1OC	i
O=C(OCCN1C(=O)c2ccccc2C1=O)c1cccc(OC(F)F)c1	i
O=C(Sc1nnnn1C1CCCCC1)c1cccs1	0.1
COc1ccc(-c2ccc(=O)n(CC(=O)Nc3cccc(O)c3)n2)cc1OC	i
CC(C)OC(=O)CC(=O)CSc1nc2c(cc1C#N)CCCCCC2	i
Cc1ccc(Nc2ccc(-n3ccnc3)nn2)cc1C	i

These rows are one share of the data (hit frequency here may not be typical).
